# Screening data: PubChem BioAssay, Johns Hopkins Ion Channel Center
# CHT inh = inhibitors of human choline transporter CHT | B-score at 10 µM | hit rate 0.86% among 310,000 | CHT-expressing cells, membrane potential dye, choline response; active compounds read low | AID 488975;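 active = B-score over 3 SD under the library average, and starting fluorescence ratio not unusually high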;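 note: choline stimulus applied at its EC90 after an EC20 pre-addition; B-score computed on integrated fluorescence ratio after choline addition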
# Target sequence (Q9GZV3 whole entry, looked up): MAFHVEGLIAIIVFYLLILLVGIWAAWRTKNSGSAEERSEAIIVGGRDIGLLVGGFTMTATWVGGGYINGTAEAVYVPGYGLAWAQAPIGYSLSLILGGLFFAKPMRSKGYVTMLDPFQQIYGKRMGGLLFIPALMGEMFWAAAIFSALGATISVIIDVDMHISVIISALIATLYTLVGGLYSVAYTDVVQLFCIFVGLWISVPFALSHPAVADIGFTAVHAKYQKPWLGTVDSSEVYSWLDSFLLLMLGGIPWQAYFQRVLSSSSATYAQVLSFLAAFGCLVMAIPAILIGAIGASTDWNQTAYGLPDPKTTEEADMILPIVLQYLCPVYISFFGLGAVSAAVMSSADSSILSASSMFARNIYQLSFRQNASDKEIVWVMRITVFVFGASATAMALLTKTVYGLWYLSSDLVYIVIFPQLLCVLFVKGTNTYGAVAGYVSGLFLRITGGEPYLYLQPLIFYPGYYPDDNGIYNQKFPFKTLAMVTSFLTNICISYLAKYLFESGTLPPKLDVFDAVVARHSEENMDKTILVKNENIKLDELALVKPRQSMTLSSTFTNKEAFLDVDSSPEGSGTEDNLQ
# Calls only; i = inactive. Some of the compounds tested, and most or all hits are left out here.
SMILES,CHT inh
COc1ccc(NC(=O)CN2C(=O)CSC2=O)cc1,i
COC(Cn1c(C)c(C(C)=O)c(C(C)=O)c1C)OC,i
O=c1c2ccccc2c(C=Nc2ccc(S(=O)(=O)N3CCCCC3)cc2)c(O)n1-c1ccc(Cl)cn1,i
Cc1cc(=O)[nH]c2c(C)cc(S(=O)(=O)N3CCCCC3)cc12,i
CCOC(=O)c1cnc(SCC(=O)Nc2ccccc2C(=O)OC)nc1N,i
Cc1ccc(Sc2cc(C(=O)NCCN(C)C)c3ccccc3n2)cc1,i
Cc1ccc(C2C3CN(C(C)C)CC=C3C(C#N)=C(N)C2(C#N)C#N)cc1 (centres undefined),i
CCCCN1C(=O)N(C)C2NC(=S)NC21 (centres undefined),i
Cc1ccc(S(=O)(=O)n2ccc(-c3ccc(OCc4c(F)cccc4Cl)cc3)n2)cc1,i
COc1ccc(OC)c(NC(=O)CCNS(=O)(=O)c2ccc3c(c2)oc(=O)n3C)c1,i
CCOc1ccccc1NC(=O)CSc1nc2ccccc2c(=O)n1CC1CCCO1 (centres undefined),i
CCc1ccc2c(c1)c1nnc(NN)nc1n2C,i
Cc1cccc(N(CC(=O)NC2CCCC2)C(=O)c2csnn2)c1C,i
CCN(CC)CCC(=O)NN,i
CN(C)CCCOC(=O)c1ccc(Br)cc1,i
COc1ccc(CCNC(=O)c2cc(C(C)C)on2)cc1OC,i
CC(CC(=O)Nc1nc2ccccc2[nH]1)c1ccccc1 (centres undefined),i
CCc1nc2oc3ccccc3c(=O)c2c(=O)n1-c1ccc(C)cc1,i
Cc1c(C(=O)OC2CCCCC2)[nH]c2c1C(=O)CC(C)(C)C2,i
Cc1c(C(=N)C(C#N)C#N)c(=N)oc2c1ccc1ccccc12,i
COCCOC(=O)C1=C(C)NC(=O)NC1c1c(OC)ncnc1OC (centres undefined),i
Cc1cc(C(=O)NC(C)C)on1,i
CCOc1ccc(-c2c(C(=O)N/N=C(\C)c3ccccc3OC)nnn2-c2nonc2N)cc1,i
CCOC(=O)COc1cccc2c(=O)n(CC(=O)N3CCc4ccccc43)ccc12,i
O=C(O)c1ccc(CNC(=O)c2ccc(Br)o2)cc1,i
# Following part:
SMILES,CHT inh
COc1ccccc1/C=C(/C(=O)OCC(=O)Nc1cc(C)ccc1C)c1ccccc1,i
COc1ccc(CC(=O)OCC(=O)NCc2ccccc2Cl)cc1OC,i
COc1cccc(C2=NOC(C(=O)NCCCn3ccnc3)C2)c1 (centres undefined),i
O=C(Nc1cccc(F)c1)c1ccco1,i
COc1ccc(OCC(=O)NNC(=O)c2cccs2)cc1,i
COc1cc(-c2nnn(CC(=O)NC3CCS(=O)(=O)C3)n2)ccc1OCc1ccccc1 (centres undefined),i
CCOC(=O)/C(C#N)=C/c1ccc(N2CCN(C)CC2)cc1,i
COc1ccc(NC(=O)Nc2ccc(F)c(Cl)c2)cc1,i
CC1CC(C)CN(C(=O)COC(=O)Cc2ccc(Cl)cc2)C1 (centres undefined),i
COc1cccc(NC(=O)[C@H](CC(C)C)NC(=O)[C@@H]2Cc3ccccc3CN2)c1,i
O=[N+]([O-])c1ccc(OCc2cn([C@@H](CO)c3ccccc3)nn2)c(Br)c1,i
COc1ccc(NC(=O)C(c2ccc(OC)cc2)N(C)C(=O)CNC(C)=O)cc1 (centres undefined),i
CCn1nc(C)c(CNC(=O)Nc2ccccc2C(=O)OC)c1C,i
O=C(COc1ccc(Br)cc1)Nc1ccccc1N1CCCC1,i
O=[N+]([O-])c1cccc(-n2nnnc2CNCc2ccccc2)c1,i
Cc1ccc(C)c(OCCCN2CCc3ccccc3C2)c1,i
O=C(Cn1nc(-c2ccccc2)ccc1=O)N1CCOCC1,i
O=C1/C(=C/c2ccncc2)Oc2cc(OS(=O)(=O)c3ccccc3)ccc21,i
CCC(=O)NCCCc1nc2ccccc2n1Cc1ccccc1F,i
CCC(=O)Nc1cccc(NC(=S)NC(=O)c2cccc(C)c2)c1,i
Nc1cc(S(=O)(=O)N2CCOCC2)ccc1Oc1ccc(F)cc1,i
CN(C)/C=C1\C(=O)NN=C1c1ccccc1,i
CCOC(=O)NC1(C(F)(F)F)C(=O)NC(C)=C1C(=O)OC (centres undefined),i
O=C(COc1ccc([N+](=O)[O-])cc1)NNC(=O)c1cccs1,i
Cn1c(SCC(=O)Nc2cccc(S(=O)(=O)NC3=NCCCCC3)c2)nnc1-c1ccccc1,i
# Next results:
SMILES,CHT inh
OCC1(Cc2ccccc2)CCN(CCCC2CCCC2)CC1,i
COc1cccc(OCC(=O)Nc2ccccc2C(N)=O)c1,i
CC(C)CN1C2CCCC1CC(NC(=S)NCc1ccco1)C2 (centres undefined),i
CC(C)CNC(=S)NNC(=O)c1ccc2c(c1)OCO2,i
Cc1ccc(NC(=O)CCC(=O)NNS(=O)(=O)c2ccccc2)cc1C,i
Cc1ccc(SC(C)C(=O)NCc2ccncc2)cc1 (centres undefined),i
O=C(CCc1ccccc1)Nc1nnc(-c2ccccn2)o1,i
COc1cnc(-c2ccccn2)nc1Sc1ccc(Cl)cc1,i
Cc1nc2c(=O)[nH]c(=S)n(C)c2nc1C,i
Cc1cccc(C(C)C)c1NC(=O)COC(=O)c1cccc(S(=O)(=O)N2CCc3ccccc3C2)c1,i
Cc1cc(NC(=O)CCC(=O)N(CC(=O)NC2CCCC2)Cc2ccc3c(c2)OCO3)no1,i
OCCC1CN(Cc2ccsc2)CCN1C1CCCC1 (centres undefined),i
CCOc1ccc(OCC)c(-c2c(=O)n(OCc3ccccc3Br)c3ccccc3[n+]2[O-])c1,i
CCOc1cc(CNc2ccc(OC)cc2)cc(Br)c1OCC(=O)NC(C)(C)C,i
COc1ccc(N2CCN(C(CNC(=O)c3cccs3)c3ccco3)CC2)cc1 (centres undefined),i
Cc1ccc(C(=O)N2NC(c3ccccc3F)C3C(=O)N(c4cccc(C)c4)C(=O)C32)cc1 (centres undefined),i
COc1ccc(/C=C/c2noc(-c3ccccc3OC(C)=O)n2)cc1,i
c1ccc(-n2ncc(-c3nn[nH]n3)n2)cc1,i
COc1ccc(C2N=C(N)N=C(N)N2c2ccc(C)cc2)cc1 (centres undefined),i
CC(=O)Nc1ccc(S(=O)(=O)NC(CC(=O)N(C)Cc2ccccc2)C(C)C)cc1 (centres undefined),i
Nc1ccccc1Sc1cc(Cl)nnc1Cl,i
COc1ccc(CN(C)CC(=O)Nc2ccccc2-c2ccccc2)c(OC)c1,i
COc1ccc(Br)cc1/C=N/NC(=O)C(c1ccncc1)N1CCOCC1 (centres undefined),i
CC1CC(=S)Nc2ccccc2S1 (centres undefined),i
Cc1ccc(OC(=O)c2ccccc2C(=O)OCC(F)(F)C(F)F)cc1,i
# Following part:
SMILES,CHT inh
O=C(Nc1ccnc(-c2cccnc2)n1)c1cccc(Cl)c1Cl,i
CC(=O)NCCc1nc2ccccc2n1CCOc1ccccc1C,i
CCc1nnc(NC(=O)CCC(=O)N2CCN(c3cc(Cl)ccc3C)CC2)s1,i
CCC(C(=O)Nc1ccccc1OC)n1c(C(=O)OC)cc2ccsc21 (centres undefined),i
O=C(CSc1cn[nH]n1)Nc1cccc(C(=O)O)c1,i
COc1cc(C(C)=O)ccc1OCc1cc(C(=O)N2CCSCC2)no1,i
COc1ccc(OC(=O)CCCN2C(=O)c3ccccc3C2=O)cc1,i
CCn1ncc(Br)c1C(=O)Nc1ccc(F)c([N+](=O)[O-])c1,i
CCn1c(=O)cc(OCC(=O)NC2CC2)c2ccccc21,i
CCOc1ccccc1N(C(C)=O)S(=O)(=O)c1ccc(Cl)cc1,i
CCOc1ccc(/C=C(\C#N)C(=O)Nc2cccnc2)cc1,i
CCc1ccccc1-n1nnnc1-c1cnccc1C(F)(F)F,i
CCN1C(=O)[C@H]2[C@@H](c3ccc(-c4ccccc4)c(OC)c3)N[C@@](Cc3ccccc3)(C(=O)OC)[C@H]2C1=O,i
CN1CCN(c2ccc(C(CC(N)=O)NC(=O)Cc3cccc4ccccc34)cc2[N+](=O)[O-])CC1 (centres undefined),i
COc1cccc(NS(=O)(=O)c2ccc3[nH]cc(C(=O)NCCN4CCOCC4)c(=O)c3c2)c1,i
Cn1c(=O)c2c(nc(N3CCCCCC3)n2CC(O)COc2ccccc2)n(C)c1=O (centres undefined),i
CCOc1ccc2nc(NC(=O)CN3CCC(n4nnc5cc(F)ccc54)CC3)sc2c1,i
CC(C)(C)C1CCC(=NOC(=O)c2ccc(F)cc2)CC1 (centres undefined),i
CCc1ccccc1NC(=O)N1CCC(NC(=O)C(Cc2ccccc2)NC(C)=O)CC1 (centres undefined),i
COc1ccc(OCc2cc(C(=O)N3CCC(OC)CC3)no2)c2ccccc12,i
COc1cc(S(=O)(=O)Nc2ccncc2)ccc1F,i
O=C(CSc1nnc(-c2ccncc2)o1)Nc1ccccc1Cl,i
Cc1c(NC(=O)C2CCN(S(=O)(=O)c3ccccc3)CC2)c(=O)n(-c2ccccc2)n1C,i
C=CCN(CC=C)C(=O)c1ccc2nc(Cc3ccc(OC)c(OC)c3)oc2c1,i
Cc1ccc(C(C)C)c(OCC(O)CN2CCN(CCO)CC2)c1 (centres undefined),i
# (list continues)
SMILES,CHT inh
COc1ccccc1CNC(=O)CN1C(=O)NC(C)(c2ccc(C(C)(C)C)cc2)C1=O (centres undefined),i
COc1ccc(C(CNC(=O)c2ccc(S(=O)(=O)N(C)C)cc2)N2CCCC2)cc1 (centres undefined),i
Cc1cccc(C(=O)NNC(=O)c2ccccc2C)c1,i
N#Cc1nc(COc2ccccc2)oc1NCCN1CCOCC1,i
COc1ccc(Oc2coc3cc(OC(=O)c4cccs4)ccc3c2=O)cc1,i
O=C(/C=C\Nc1ccc(Br)cc1)c1cccnc1,i
COCc1ccc(C(=O)N2CCCC(N3CCN(c4ccccc4C)CC3)C2)s1 (centres undefined),i
COC(=O)c1ccc(CN2CCN(CCCc3ccccc3)C(CCO)C2)cc1 (centres undefined),i
O=C(C1=C[C@H](c2ccc(C(F)(F)F)cc2)C[C@H](OCCCCO)O1)N1CCN(Cc2ccc3c(c2)OCO3)CC1,i
COc1ccc(NC(=O)C(Sc2nnc(-c3ccncc3)n2-c2ccccc2C)c2ccccc2)cc1Cl (centres undefined),i
C[C@@H](NC(=O)[C@@H]1Cc2ccccc2CN1)C(=O)Nc1ccc2c(c1)OCO2,i
Cn1nc(C(F)(F)F)c(-c2ccc(F)cc2)c1NC(=O)CSCC(=O)O,i
Cc1cccc(N2CC(C(=O)Nc3nccs3)CC2=O)c1C (centres undefined),i
Cc1ccc(NC(=O)c2ccc(S(=O)(=O)N3CCC(C)CC3)cc2)nc1,i
COCCOC(=O)c1[nH]c2c(c1C)C(=O)CC(c1cc(OC)ccc1OC)C2 (centres undefined),i
CCCn1c(SCC(=O)N2CCN(c3ccccc3)CC2)nc2ccccc2c1=O,i
C=CCc1ccccc1OCC(O)CN1CCN(c2ccccc2F)CC1 (centres undefined),i
COc1ccc(OC2CCN(S(=O)(=O)c3ccc(OC)cc3)CC2)cc1,i
CCCCn1c(N)c(N(CCOC)C(=O)CCS(=O)(=O)c2ccc(Cl)cc2)c(=O)[nH]c1=O,i
COc1ccc2nc(NC(=O)Nc3cccc4ccccc34)sc2c1,i
CCOc1ccc(NC(=O)CSc2nnc(-c3ccco3)n2C)cc1,i
Cc1cccc(-n2nnnc2SCn2nnc3ccccc3c2=O)c1,i
CC(=O)c1c(C)[nH]c(C(=O)OCc2ccccc2F)c1C,i
CC1Cc2cc(-c3csc(N)n3)ccc2O1 (centres undefined),i
Cc1ccc(C(=O)N/N=C/c2ccc(-c3ccc(Br)cc3[N+](=O)[O-])o2)o1,i
# (next part)
SMILES,CHT inh
CCC(C(=O)NCCc1ccc(OC)c(OC)c1)n1nc(C)n2c(cc3occc32)c1=O (centres undefined),i
O=C(CP(=O)(CO)CO)c1ccc(Cl)cc1,i
CCOC(=O)C1CCCN(c2c(Nc3cc(C)cc(C)c3)c(=O)c2=O)C1 (centres undefined),i
N#CCCC1CCCC=C1N(Cc1ccccc1)C(=O)C(Cl)Cl (centres undefined),i
CCCCN1CC[C@H]2C=CC[C@@H](C(=O)Nc3ccc(Cl)c(C(F)(F)F)c3)[C@H]2C1=O,i
O=C(NCC1CCCO1)C1CCN(S(=O)(=O)c2cccnc2)CC1 (centres undefined),i
CCCCn1c(N)c(N(CC(C)C)C(=O)C2CCN(S(=O)(=O)c3ccc(C)c(C)c3)CC2)c(=O)[nH]c1=O,i
Cc1ccc(C(C(=O)NC2CCCCC2)N(CC2CCCO2)C(=O)CNC(=O)c2ccco2)cc1 (centres undefined),i
O=C(CCCOc1ccc(Cl)cc1Cl)NCCc1ccccn1,i
Cc1ccc(C(=O)OCC(=O)Nc2cccc(Cl)c2C)c(O)c1,i
O=S(=O)([N-]c1nc2ccccc2nc1-n1cc[n+](Cc2ccccc2)c1)c1ccccc1,i
